Screens from PubChem BioAssay.
PINK1 modulator: A Quantitative High throughput Screen to Identify Chemical Modulators of PINK1 Expression; AID 624263, 2012; Potency, µM (top dose mostly 76.6 µM), without a hit: at the top dose activation (PINK1 increase), most hits filed as activators; 410,000 tested, 0.2% active; PINK1 immunofluorescence, high-content cytometry, 24 h; active = well fitted activation curve with a large enough effect; inconclusive = small, poorly fitted or top-dose-only effect; inactive = flat fitted curve, though single readings scatter; cell line not stated here;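 also: potency is read from the fitted curve at half-maximal effect; % of control where 0% means no effect; nearly all actives have a fitted effect of over 65% in size; a mitochondrial uncoupler was the plate control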
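Cells are seeded, rested 12 hours, then given compound at five concentrations or DMSO for 24 hours. After fixation, blocking and antibody staining, PINK1 amount and mitochondrial localization are scored; CCCP serves as control.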
Sfp inh: qHTS Assay for Inhibitors of Bacillus subtilis Sfp phosphopantetheinyl transferase (PPTase) | Potency, µM, without a hit: max response, negative = inhibition, most hits filed as inhibitors | Biochemical Sfp PPTase activity, qHTS | AID 1490, 2009 | 4'-phosphopantetheinyl transferase ffp (Bacillus subtilis), Q9F4F7 | 310,000 tested, 3.5% active; active = well fitted inhibition curve with a large enough effect; inconclusive = small, poorly fitted or top-dose-only effect, or another doubt; inactive = no such curve, though single readings can be large or run the other way;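 also: the enzyme is Sfp with the accession as filed and its product quenches rhodamine fluorescence; potency is read from the fitted curve at half-maximal effect; 0% = enzyme reaction without inhibitor and -100% = no enzyme wells; top concentration of the series not given in the record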
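Reaction rates are the 30-min fluorescence difference (ex 525, em 598 nm) in wells containing 15 nM Sfp, 5 uM rhodamine-CoA and 12.5 uM BHQ-2-YbbR at pH 7.6 with 10 mM MgCl2.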
Menin MLL FP FL: qHTS Assay for Inhibitors Targeting the Menin-MLL Interaction in MLL Related Leukemias: Competition With Fluorescein Labeled MLL-derived Peptide. FP activity change, % at 61.4 µM. Fluorescence polarization, fluorescein-MLL peptide displacement from menin. 290,000 tested, under 10 active; inconclusive = falling polarisation curve, or a change in total fluorescence; inactive = total fluorescence flat and polarisation flat or rising; no compound was filed as active; the % refers to the polarisation; negative = inhibition;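 also: % of control where 0% means no effect; inhibitors lower the polarisation; unlabelled MLL peptide was the positive control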
gsp antag: qHTS for Antagonists of gsp, the Etiologic Mutation Responsible for Fibrous Dysplasia/McCune-Albright Syndrome: qHTS; gsp-mutant cells, cAMP HTRF, 30 min; control for the full effect not named in the record; Potency, µM (series often up to 76.9 µM), without a hit: at the highest dose activity change, negative = inhibition, hits mostly inhibitors; 340,000 tested, 0.4% active; AID 624288, 2012; active = falling curve of any shape with a large fitted effect; inconclusive = falling curve, mostly with a smaller effect; inactive = flat or rising curve; cell line not stated here;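 also: intracellular cAMP measured with PDE inhibitor Ro 20-1724 present during compound exposure; potency is read from the fitted curve at half-maximal effect; % is scaled to controls: 0 for no effect and ±100 for the full control effect; nearly all actives have a fitted effect of over 65% in size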
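G418-selected cells were plated in DMEM/10% FBS for 16-24 h at 37C, then treated with compounds plus the PDE inhibitor […] (300 uM solution added) for 30 min at 37C. Intracellular cAMP was measured by HTRF after 30 min lysis at room temperature.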
gsp agonist: qHTS for Agonist of gsp, the Etiologic Mutation Responsible for Fibrous Dysplasia/McCune-Albright Syndrome: qHTS; gsp mutant cells, cAMP HTRF, 30 min; control for the full effect not named in the record; Potency, µM (top dose mostly 76.9 µM), for inactives: at the highest dose activation (cAMP increase), hits mostly activators; 340,000 tested, 0.13% active; AID 624287, 2012; active = well fitted activation curve with a large enough effect; inconclusive = small, poorly fitted or top-dose-only effect, or another doubt; inactive = no such curve, though single readings can be large or run the other way; cell line not stated here;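 also: phosphodiesterase inhibitor Ro 20-1724 added with compounds to block cAMP breakdown; potency is read from the fitted curve at half-maximal effect; nearly all actives have a fitted effect of over 60% in size; about a fifth of the inactives were tested at one dose only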
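Cells in DMEM/10% FBS with G418 were pretreated with compounds in DMSO plus […] (300 uM stock) for 30 min at 37C. cAMP was measured by HTRF (cAMP-d2 plus anti-cAMP antibody-K) after 30 min at room temperature.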
D2 ag: Beta-Arrestin HTS for Positive Allosteric Modulators of the Human D2 Dopamine Receptor: Agonists; AID 624465, 2012; DiscoveRx PathHunter D2 beta-arrestin, luminescence, 90 min; 100% = 57 uM dopamine signal; D(2) dopamine receptor (Homo sapiens), P14416; 360,000 tested, 0.084% active; activation, % (concentration not given with the values); in the data active = activation above about 40%; inconclusive = about 15% to 40%; inactive = below about 15%; also: compound concentration not given in the record; the text of the record calls up to 30% inactive
Target sequence (P14416 whole entry, looked up): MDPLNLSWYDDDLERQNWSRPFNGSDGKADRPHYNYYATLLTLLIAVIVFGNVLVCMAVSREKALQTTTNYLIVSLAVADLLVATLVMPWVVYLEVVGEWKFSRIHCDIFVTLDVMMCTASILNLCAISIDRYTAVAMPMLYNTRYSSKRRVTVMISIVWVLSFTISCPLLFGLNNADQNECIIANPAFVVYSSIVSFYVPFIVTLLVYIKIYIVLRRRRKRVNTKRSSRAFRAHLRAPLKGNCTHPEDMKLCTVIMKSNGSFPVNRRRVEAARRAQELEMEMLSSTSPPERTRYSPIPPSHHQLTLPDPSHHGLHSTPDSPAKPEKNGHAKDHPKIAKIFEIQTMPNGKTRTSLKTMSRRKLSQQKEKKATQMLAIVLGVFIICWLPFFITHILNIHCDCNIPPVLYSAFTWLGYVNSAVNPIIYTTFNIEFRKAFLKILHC
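DiscoveRx PathHunter D2 beta-arrestin cells (2,100/well) attached overnight, then compound-stimulated 90 min at 37 C in HBSS/10 mM HEPES/0.1% Tween-20 buffer; beta-galactosidase complementation read by luminescence after 1 h at ambient temperature. Dopamine 57 uM final (EC100) as control.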
ClpP mod: qHTS Assay for Activators of ClpP; purified B. subtilis ClpP, FRET peptide cleavage, 20 min; ATP-dependent Clp protease proteolytic subunit (Bacillus subtilis (strain 168)), P80244; AID 651965, 2013; Potency, µM (titrated, usually from 57.5 µM), without a hit: at the top dose activity change, negative = active; 340,000 tested, 1.9% active; active = well fitted falling curve with a large enough effect; inconclusive = small, poorly fitted or top-dose-only effect; inactive = no such curve, though single readings can be large or run the other way; also: potency is read from the fitted curve at half-maximal effect; the source files actives as falling curves though it sought activators and does not explain the sign; nearly all actives have a fitted effect of over 65% in size; many hits overshoot -100%
Target sequence (P80244 whole entry, looked up): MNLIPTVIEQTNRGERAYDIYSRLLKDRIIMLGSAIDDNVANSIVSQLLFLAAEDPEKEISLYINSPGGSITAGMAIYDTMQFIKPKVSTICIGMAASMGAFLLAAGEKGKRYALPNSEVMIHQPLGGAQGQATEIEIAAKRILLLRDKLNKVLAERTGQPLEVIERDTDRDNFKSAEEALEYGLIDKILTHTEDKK
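Buffer: 100 mM Tris/HCl pH8, 100 mM KCl, 0.05% low protease BSA, 2.5% glycerol, 0.01% Tween-20. ClpP 10 microg/mL final; 20 min RT; delta FRET normalized to ADEP and DMSO controls.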
The depositor's hits bear a star; u = inconclusive; x = no result given; & = joins results of further samples; [ ] = dose if it differs, or a comment. This is a random part of the collection (roughly 5.1% active in at least one column).

SMILES	PINK1 modulator	Sfp inh	Menin MLL FP FL	gsp antag	gsp agonist	D2 ag	ClpP mod
CSc1ccccc1NC(=O)C1CC(c2ccccc2Cl)=NO1 (configuration not stated)	2.0%	-27%	1.7	0%	-18%[15.4 µM]	-2.0	1.0%
COc1ccc(NC(=O)c2ccccc2Cl)c(NC(=O)c2ccco2)c1	3.3%	8%	-0.4	0%	-6%[15.4 µM]	2.6	x
CC1CCN(S(=O)(=O)c2ccc(S(=O)(=O)NCc3ccco3)cc2)CC1	0.6%[38.3 µM]	13%	0.2	2%	-1%	0.6	-1.0%
COc1ccc(NC(=O)c2cc(=O)c3ccccc3o2)cc1Cl	9.4%	4%	3.1	7%	-23%[15.4 µM]	0.6	-11%
CCCCC1(CC(=O)OCC)C(=O)N(c2ccccc2)N(c2ccccc2)C1=O	2.4%	14%	2.3	-5%	u	-3.4	-1.4%
O=C(CCn1cccc1)N1CCc2ccccc21	-0.9%	1%	2.4	5%	-4%	0.8	-2.7%
CC12CCC(=O)N1C(C(=O)Nc1ccc(F)c(Cl)c1)CS2 (configuration not stated)	0.5%	x	x	2%	-1%[15.4 µM]	-4.6	-1.5%
O=C(CSc1nc2ccccc2c(=O)n1-c1ccc(F)cc1F)c1c[nH]c2ccccc12	-0.9%	5%	4.5	20%	-22%	4.2	-2.3%
Cc1ccc(NC(=O)C2CCC(C(C)(C)C)CC2)cc1S(=O)(=O)N1CCOCC1 (configuration not stated)	u	x	x	-4%	-1%	12	x
O=c1c(Cl)c(NCc2ccc(F)cc2Cl)cnn1C12CC3CC(CC(C3)C1)C2	0.9%	7%	-3.2	-15%	-7%	-3.9	3.8%
CCC(C)OC(=O)C1C(c2ccccc2)C(C(=O)O)C1c1ccccc1 (configuration not stated)	17%[38.3 µM]	7%	1.8	0%	9%	-3.3	-0.5%
COc1cc(NC(=O)CCN2CCN(C)CC2)cc(OC)c1	3.6%	20%	-1.1	17%	-1%[15.4 µM]	-1.6	0.0%
Cc1cccc(C)c1OCc1nc2ccccc2[nH]1	5.1%	-1%	3.0	7%	6%	0.0	-7.3%
CC(C)NC(=O)/C(=C\c1cccc([N+](=O)[O-])c1)NC(=O)c1ccccc1	11%[38.3 µM]	0%	-0.1	8%	-4%	6.2	-0.5%
COc1ccc(-c2oc3ccccc3c2C#Cc2cncn2C)cc1	-1.0%	x	x	-24%	x	-5.3	3.9%
Cc1ccc(C(C)C)c(OCCN)c1	1.0%[38.3 µM]	-2%	-1.9	8%	1%	0.4	-2.2%
CC(OC(=O)C1=COCCO1)C(=O)Nc1ccc(Cl)cn1 (configuration not stated)	-2.8%	x	x	13%	-2%[15.4 µM]	-4.8	x
N#C/C(=N\Nc1ccccc1Cl)C(=O)c1ccccc1	u	12%	4.1	u	-25%	-2.5	-1.5%
Cc1ccc2c(c1)C(=O)C(=O)N2c1ccc(Cl)cc1	2.7%	x	x	4%	-31%[inhibitor]	-19	-0.5%
COc1ccc(-c2oc3ccc(-c4cc(OC)c(OC)c(OC)c4)cc3c2C#Cc2ccccn2)cc1	-0.3%	x	x	-6%	-35%[inhibitor]	-3.5	3.8%
O=C(Nc1cccc(Cl)c1Cl)C1CCN(c2ncccn2)CC1	18%[38.3 µM]	-9%	-0.8	0%	-6%	-1.8	-4.9%
COC(=O)c1cnc(Nc2nc(CN)cs2)nc1C(F)(F)F	-1.0%	x	x	x	x	-2.9	0.1%
Cc1ccc(S(=O)(=O)Oc2ccc(/C=C(/NC(=O)c3ccccc3)C(=O)NCC(=O)O)cc2)cc1	3.4%	13%	-2.6	6%	-3%[15.4 µM]	-3.1	x
Cc1nc2ccccc2c(C)c1C(=O)c1ccc(F)cc1	-0.7%	5%	-0.7	x	2%[15.4 µM]	3.5	x
COc1ccccc1N(CC(=O)NCCc1ccccc1)C(=O)CCC(=O)Nc1cc(C)ccn1	-0.3%	-2%	4.3	-7%	12%[15.4 µM]	-0.6	x
SMILES	PINK1 modulator	Sfp inh	Menin MLL FP FL	gsp antag	gsp agonist	D2 ag	ClpP mod
Cc1ccccc1NC(=S)N(CCc1c(C)[nH]c2ccc(F)cc12)Cc1ccncc1	3.9%	6%	4.5	-30%	-10%[15.4 µM]	u	x
Cc1ccc(S(=O)(=O)N2CCCN(C)c3nc4ccccc4nc32)cc1	0.1%	x	x	-5%	-23%	2.5	-28%
Cc1[nH]n(-c2ccc(Cl)cc2)c(=O)c1N=Nc1cccnc1	2.0%	8%	2.0	8%	24%	-1.1	1.0%
CCOC(=O)c1cc(C)n(Cc2ccccc2)c1C	9.4%	-19%	-1.6	10%	-11%	-4.9	3.5%
CCCCC(=O)Nc1cccc(NC(=S)NC(C)=O)c1	1.2%	6%	2.4	11%	21%	-0.7	-1.4%
CCOC(=O)N1CCN(C(=O)c2ccc3c(c2)N(Cc2cc(C)ccc2C)C(=O)c2ccccc2S3=O)CC1 (configuration not stated)	5.9%&-0.5%	4%	x	-19%	-46%[inhibitor]	-0.9	2.1%&-0.1%
C#CCOCCOCCOCCNc1nc(N2CCN(C(=O)[C@H](CCC(=O)O)n3cc(C(N)CO)nn3)CC2)nc(N2CCN(C(=O)[C@H](Cc3cc4ccccc4[nH]3)n3cc(C(N)[C@H](C)CC)nn3)CC2)n1 (some centres not stated)	0.6%	u	-0.7	8%	2%	-1.6	-2.0%
CC(C)(C)[C@@H]1CCC(=O)N(CC[C@H](Sc2ccc(Br)cc2)c2ccccc2)CC1	u	x	x	-11%	x	-0.3	0.2%&-1.0%
Cc1cc(NC(=O)CSc2nc(=O)cc(N)n2-c2ccc(F)cc2)no1	-1.5%	27%	x	10%	6%	-4.5	-0.3%
Cc1ccc(-c2c(C#N)c(N)n3c(nc4ccccc43)c2C#N)cc1	u	-8%	25	-12%	17%	-1.7	-1.8%
CC(=O)c1cc2ccccc2oc1=O	0.5%	4%	-1.0[24.8 µM]	6%	u	-6.6	-5.0%
CC(=O)Nc1ccc(NC(=O)Cn2cnc(S(=O)(=O)N3CCOCC3)c2)cc1	-1.7%	16%	x	17%	13%	-3.5	0.3%
O=C1CCCCC1	2.8%	x	x	1%	x	-3.0	0.6%
CC(=O)c1cnn(-c2nc3c(C)cccc3s2)c1C	-2.7%	u	1.7	-3%	u	-1.6	u
CCOC(=O)c1sc(Nc2nc3c(F)cccc3s2)cc1C	9.7%	u	3.8	-5%	6%	4.2	8.9µM*
CC(C)Cc1cc(-c2ccco2)c(C#N)c(N)n1	0.3%	-4%	8.1	-2%	4%	-1.1	3.2µM*
O=C(O)/C=C\C(=O)Nc1ccccc1C(=O)N1CCN(c2ccc(Cl)cc2)CC1	4.2%	-23%	2.8	10%	u	-2.6	20µM*
COc1cc(NS(=O)(=O)c2ccc(NC(=O)/C(=C/c3ccccc3Cl)NC(=O)c3ccccc3)cc2)nc(OC)n1	-0.4%	10%	5.4	-23%	1%	-3.9	4.1%
O=C(c1cccs1)N(Cc1cccc(Cl)c1)C1CCS(=O)(=O)C1 (configuration not stated)	-25%[38.3 µM]	14%	-1.0	-6%	-22%	-2.0	0.9%
O=C1c2ccccc2CN1c1ccccc1	-1.5%	4%	-1.9	0%	20%	3.2	x
CCN(CCCNc1ncnc2nc[nH]c12)c1cccc(C)c1	-0.7%	7%	2.8	3%	1%	6.5	-0.6%
CC(C)OC(=O)CSc1nc(Cc2ccccc2)nc2ccccc12	1.0%	4%	4.1	7%	-4%	-7.0	-2.6%
CCOC(=O)Nc1nc2ccc(Cn3cccc3)cc2[nH]1	18%	x	x	14%	u	1.7	-1.5%
Cc1nnc(N/N=C/c2ccccc2O)n1N	-0.3%	18%	-5.2	-5%	-101%[inhibitor]	9.1	-2.3%
O=C(O)c1cc(-c2cccs2)nn1-c1cccc(Cl)c1	1.5%	89µM*	9.8	-16%	-16%[15.4 µM]	-3.6	-2.8%
SMILES	PINK1 modulator	Sfp inh	Menin MLL FP FL	gsp antag	gsp agonist	D2 ag	ClpP mod
CC1(C)CC2CC(C)(CN2S(=O)(=O)c2ccccc2[N+](=O)[O-])C1 (configuration not stated)	0.9%	x	x	-6%	u	0.0	1.3%
CC(=O)Nc1ccc(C=C(C#N)c2ccc(C)cc2)cc1	-0.4%	x	x	x	u	-3.6	2.8%
CCc1ccc(OCC(=O)NNC(=O)c2cc3ccccc3o2)cc1	0.5%	4%	2.7	4%	10%[15.4 µM]	-4.0	x
O=C1C2CC=C(Cl)CC2C(=O)N1CC1Cc2ccccc2CO1 (configuration not stated)	2.7%	-17%	u	8%	-101%[inhibitor]	-0.8	1.3%
CCOC(=O)C1(C)CCCN(C(=O)c2ccc(N(C)C)cc2)C1 (configuration not stated)	2.6%	x	x	x	x	-2.9	-0.5%
CCCCCCCCOC(=O)/C=C/c1c(C)[nH]c(=O)[nH]c1=O	9.0%	16%	1.4	7%	-4%	-5.8	-1.0%
COc1ccc(Cl)cc1NC(=O)[C@@H]1CCCN1C(=O)c1cccs1	-0.6%	12%	-4.2	3%	-2%	0.3	-2.0%
CN(C)c1ccc(NS(=O)(=O)c2cc(Cl)ccc2Cl)cc1	5.9%	-3%	3.5	-11%	5%	4.8	-1.0%
Cc1cccn2c(CNCCCn3ncc4ccccc43)c(C(=O)N3CCCCC3)nc12	1.1%	13%	-0.9	1%	-12%	-2.6	-2.3%
O=C(O)c1cccc(S(=O)(=O)N(Cc2ccccc2)c2ccc(Cl)cc2)c1	-3.1%	-4%	-1.0	-10%	-14%[15.4 µM]	-0.6	x
COC(=O)c1ccc(COc2ccc(C)c(C)c2)o1	-1.7%	-7%	-7.6	2%	6%	12	-2.1%
Nc1nn2c(C(F)(F)F)cc(=O)[nH]c2c1N=Nc1cccc(F)c1	-1.6%	5%	0.0	-31%	0%	0.0	x
COc1cccc(C(=O)NC2CCNCC2)c1	1.8%	3%	0.0	17%	-33%[inhibitor]	-7.5	-2.3%
